Env fusion inh: inhibitors of HIV-1 Env-driven cell-cell fusion, primary screen, HeLa-JRFL effector, CEM21 target cells, luciferase; inhibition, % at 12.3 µM; 1.1% of 360,000 active;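 active = mean replicate inhibition score of at least 50 and every replicate individually at or above 50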;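 note: 0% = plate neutral controls and 100% = maraviroc near 300 nM; one replicate is shown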
Yeast UUG start: modulators of yeast start codon fidelity, primary screen, whole organism, S. cerevisiae, single point, plate reader. S. cerevisiae UUG-firefly luciferase reporter, luminescence/redox ratio. activity score, % at 18.7 µM. 0.13% of 350,000 active. AID 602363, 2012;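 active = replicate mean at a twofold rise or more, about +100% in these data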;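 note: firefly luciferase made from a UUG start codon reports start codon fidelity; reporter light over untreated wells divided by growth signal over untreated wells; some hits fall short of that in this replicate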
PABP FP inh: PABP poly(A) RNA binding inhibitors, primary screen, biochemical, fluorescence polarization, uHTS; Polyadenylate-binding protein 1 (Homo sapiens), P11940; inhibition, % at 35 µM; 1% of 290,000 active;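 active = 50% or more with normal probe brightness, or confirmed in later tests; about a fifth of its hits are not listed in these tables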;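 note: calls also rest on retests at 20 µM and on dose response follow-up; controls were probe without protein and protein plus probe with vehicle; some compounds called inactive have numbers as strong as hits; many hits fall short of the cut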
Target sequence (P11940 whole entry, looked up): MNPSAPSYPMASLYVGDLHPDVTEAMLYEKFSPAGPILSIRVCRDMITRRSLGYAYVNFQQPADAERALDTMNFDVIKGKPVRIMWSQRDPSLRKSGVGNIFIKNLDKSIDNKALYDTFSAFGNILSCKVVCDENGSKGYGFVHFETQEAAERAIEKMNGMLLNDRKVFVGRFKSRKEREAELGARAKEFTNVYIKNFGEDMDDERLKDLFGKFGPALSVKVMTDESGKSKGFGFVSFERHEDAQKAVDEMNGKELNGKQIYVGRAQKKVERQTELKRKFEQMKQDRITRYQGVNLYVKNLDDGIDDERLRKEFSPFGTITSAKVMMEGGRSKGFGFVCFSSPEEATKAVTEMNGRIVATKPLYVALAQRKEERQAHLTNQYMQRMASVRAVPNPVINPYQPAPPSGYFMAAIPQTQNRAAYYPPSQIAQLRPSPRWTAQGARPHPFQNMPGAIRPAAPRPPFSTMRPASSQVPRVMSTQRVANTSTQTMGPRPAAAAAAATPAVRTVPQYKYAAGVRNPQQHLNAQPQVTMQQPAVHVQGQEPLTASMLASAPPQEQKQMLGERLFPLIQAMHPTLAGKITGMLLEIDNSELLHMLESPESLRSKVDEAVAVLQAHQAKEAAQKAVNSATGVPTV
MT1-MMP act inh: blockers of MT1-MMP proenzyme processing, primary screen, HT1080 RFP-PRO-GFP cells, GFP/RFP fluorescence | 0.061% of 360,000 active | GFP/RFP ratio change, % at 20 µM | GFP/RFP ratio fluorescence, overnight; percent of plate control window, DMSO zero | Matrix metalloproteinase-14 (Homo sapiens), P50281 | AID 651647, 2012;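 active = GFP/RFP ratio change of at least 30% with cell ATP level not reduced by more than half and red fluorescence within 50% of control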; note: strong numbers were not always called active
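Test system: HT1080 RFP-PRO-GFP cells; Benchmarks: DMSO and RFP-L50D-GFP cell wells; Timing: cells overnight before dosing, compound overnight, 37 °C, 5% CO2; Compound: one 20 µM compound dose with 1% DMSO; Read-out: GFP/RFP fluorescence ratio.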
CSC inhib: cancer stem cell viability inhibitors, primary screen, luminescence. inhibition, % at 7.5 µM. cancer stem cell-like cells viability. 1.1% of 300,000 active;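 active = mean at 75% or more and at least half the replicates too; tested in HMLE shEcad cells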;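 note: 0% = median of negative and 100% = median of positive control wells; the first replicate is given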
eIF4H inh: human eIF4H binding inhibitors, primary screen, translation initiation inhibitor project, biochemical, uHTS, fluorescence polarization; Eukaryotic translation initiation factor 4H (Homo sapiens), Q15056; eIF4H fluorescence polarization binding assay; inhibition, % at 35 µM; 0.94% of 290,000 active; AID 2012, 2009;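 active = 50% or more with normal probe brightness, or confirmed in later tests; about a fifth of its hits are not listed in these tables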;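 note: calls also rest on retests at 20 µM and on dose response follow-up; 0% = protein and probe with vehicle and 100% = probe without protein; strong numbers were not always called active; many hits fall short of the cut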
Rce1 inh: yeast Rce1p protease inhibitors, primary screen, biochemical, fluorescence, cell-free homogeneous; CAAX prenyl protease 2 (Saccharomyces cerevisiae (strain ATCC 204508 / S288c)), Q03530; yeast membranes, quenched prenylated peptide cleavage fluorescence; calls only; 0.27% of 290,000 active; AID 2563, 2010;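 active = fall in fluorescence gain of 50% or more versus controls, with final raw signal at or below 3038400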;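 note: plate controls were neutral control wells for no effect and wells lacking membranes for full effect; tested at 10 µM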
eIF4H inh retest: second read-out of eIF4H inh, no call of its own (marks repeat the call); inhibition, %; compound at 20 µM; confirmation average;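 mean of two retest wells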
PABP FP inh retest: recorded beside PABP FP inh, whose call it bears; inhibition, %; compound at 20 µM; confirmation repeats;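 mean of two retest wells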
MT1-MMP act inh RFP: second read-out of MT1-MMP act inh, no call of its own (marks repeat the call); RFP signal change, %; measured here: RFP expression control read;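 0 = vehicle wells; hits needed this value within 50% of zero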
* = called active by the depositor; i = inactive; x = no result given. The list is partial. The share of hits here may be higher or lower than overall.

SMILES | Env fusion inh | Yeast UUG start | PABP FP inh | MT1-MMP act inh | MT1-MMP act inh RFP | CSC inhib | eIF4H inh | Rce1 inh | others
CS(=O)(=O)N1N=C(c2cccs2)CC1c1ccccc1O (stereo not drawn) | 4.3 | x | 34.0* | -8.7 | -3.8 | -10.6 | 59.3* | i | eIF4H inh retest=96.1*;PABP FP inh retest=63.2*
O=C(CN1CCOCCOCCN(CC(=O)Nc2ccccc2)CCOCC1)Nc1ccccc1 | -28.8 | -18.7 | 3.4 | -4.7 | 4.5 | 7.5 | 16.6 | i
O=C(Nc1ccc2c(c1)OCO2)c1cc(-c2ccncc2)nc2ccccc12 | -17.3 | -1.1 | -4.7 | -4.7 | -3.5 | 30.8 | 77.0 | i | eIF4H inh retest=2.4;PABP FP inh retest=8.9
O=C(Nc1ccc2c(c1)OCO2)c1ccc(CN2CCOCC2)cc1 | -43.4 | -7.3 | 6.0 | -0.5 | -4.9 | 1.7 | -3.2 | i
CCOC(=O)C(CC(=O)O)=C(c1ccccc1)c1ccccc1 | -2.7 | 9.2 | 5.7 | -2.4 | 5.1 | -7.3 | -10.7 | i
COc1ccc(OC)c(N(CC(=O)N2CCOCC2)S(C)(=O)=O)c1 | -15.8 | -9.3 | 12.1 | x | x | -15.7 | -2.6 | i
CC(C)(C)n1ncc2c(=O)n(CC(=O)NCc3ccccc3)cnc21 | x | -49.6 | 3.5 | 5.9 | -3.7 | 36.9 | -1.8 | i
C=CCn1c2ccccc2c2nnc(SCCCn3c(=O)[nH]c4ccccc43)nc21 | x | -8.5 | -4.8 | -4.9 | -20.7 | x | -7.3 | x
O=C(c1ccc(S(=O)(=O)NCc2ccco2)cc1)N1CCN(Cc2ccc3c(c2)OCO3)CC1 | -7.2 | 1.1 | 7.7 | 0.0 | -6.0 | -10.4 | 1.7 | i
CCOC(=O)c1c(NC(=O)COC(=O)C2CC2C)sc(C)c1C (stereo not drawn) | -27.5 | x | 27.9 | 3.4 | -3.6 | 2.9 | -2.7 | i
O=C(Nc1cccc2ccccc12)N1CC=CCC1 | x | -14.8 | 94.8* | -11.1 | -2.3 | x | 81.4* | i
Cc1cc(Cl)ccc1OC(C)C(=O)NCCc1ccc2c(c1)OCCO2 (stereo not drawn) | 13.2 | x | 2.4 | -2.6 | 2.3 | -29.2 | 6.5 | i
CCn1cc(CCCC(=O)NCc2ccc(OC)cc2)c2ccccc21 | 13.2 | 5.9 | 1.3 | 2.7 | -2.5 | -4.6 | -3.1 | i
O=C(O)/C=C/C(=O)Nc1ccc(NC(=O)c2ccccc2)c(Cl)c1 | -11.3 | x | 1.5 | 3.1 | -0.1 | 1.2 | 2.1 | i
O=C(CSc1nnc2ccccn12)NC(=O)NC1CCCCC1 | x | -3.5 | -4.6 | 0.9 | 3.2 | -8.4 | -4.5 | i
Clc1ccc(Cn2c(/C=C/c3ccco3)nc3ccccc32)cc1 | -50.3 | x | 0.7 | -20.2 | 1.5 | -1.7 | 68.2 | i | eIF4H inh retest=-4.2;PABP FP inh retest=18.2
COc1ccc(C2CC(=O)N(C)c3ccccc3S2)cc1 (stereo not drawn) | -170.8 | -21.3 | 12.9 | 2.6 | 10.3 | -3.3 | -4.2 | x
Cc1ccc(NC(=O)Cn2c(CCC(=O)O)ccc2-c2ccc(Cl)cc2)cc1 | -2.8 | -17.2 | -11.3 | -4.1 | -1.3 | -11.3 | 0.0 | i
COc1cc(/C=C2/SC(=S)N(CC(=O)O)C2=O)ccc1OC(=O)c1cccs1 | -8.8 | x | 8.3 | -29.9 | 58.8 | -8.1 | 7.1 | i
CN1CCSc2ccc(C(=O)Nc3ccc(Cl)cc3)cc21 | -63.8 | x | 3.4 | 9.6 | 1.6 | 3.3 | -8.9 | i
CC(C)(C)OC(=O)C[C@@H]1C/C=C\C[C@@H](CC(=O)N[C@@H](CO)Cc2ccccc2)C(=O)NC[C@@H](c2ccccc2)OC1=O | -19.0 | 19.6 | x | 2.6 | 2.1 | -7.4 | x | x
Cc1ccc(-c2nnn(CC(=O)N(c3ccccc3)C(C(=O)NCC3CCCO3)c3cccs3)n2)o1 (stereo not drawn) | -1.9 | x | -15.2 | 0.1 | 3.2 | x | -10.4 | i
CCNC(=S)N1CCN(c2ccccc2OCC)CC1 | 2.7 | x | 3.0 | 3.1 | 2.0 | 0.1 | -7.5 | i
Cc1cccc(NC(=S)NC2CC3CCCC(C2)N3Cc2ccco2)c1 (stereo not drawn) | -10.9 | x | -8.5 | 3.4 | 0.4 | 1.0 | -7.5 | i
COc1ccc(/C=C2\SC(=S)N(NS(=O)(=O)c3ccc(C)cc3)C2=O)c(OC)c1 | -1.9 | -3.8 | 4.0 | -0.7 | 1.3 | 21.6 | 0.4 | i
COc1ccc(N(CC(=O)Nc2nccs2)S(=O)(=O)c2c(C)[nH]c(=O)[nH]c2=O)cc1 | -4.5 | x | 3.7 | -0.4 | 4.2 | -7.2 | -15.0 | i
C/C=C\C(=O)Nc1cccc(C2=NOC3(C2)C[C@@H](C(N)=O)N(C(=O)c2ccc(OC)cc2)C3)c1 (stereo partly drawn) | 2.1 | x | 0.2 | x | x | -10.5 | 13.7 | i
CN1/C(=C\C(=S)NC(=O)c2ccc([N+](=O)[O-])cc2)C(C)(C)c2ccccc21 | 19.6 | x | -6.5 | 42.2* | 9.7* | -5.8 | -12.9 | i
CC(=O)N1c2ccc(S(=O)(=O)NCCc3ccc(Cl)cc3)cc2CC1C (stereo not drawn) | 1.8 | 2.9 | -4.6 | 1.2 | -2.1 | -6.4 | -0.5 | i
Cc1ccc(NC(=O)Cn2cccc2)cc1C | 12.6 | -7.7 | 10.2 | -2.2 | -5.1 | 3.4 | 22.3 | i
CCc1cc(=O)oc2c3c(cc(OCC(=O)NCCCOC)c12)OC(C)(C)CC3 | -2.9 | 9.4 | 9.5 | -0.1 | 2.1 | -7.6 | -4.6 | i
Oc1ccc(Nc2ncnc3ccccc23)cc1 | 2.8 | -12.5 | -5.2 | -1.0 | -0.1 | 12.2 | -3.6 | i
Cc1ccc(NC(=O)c2ccc3c(SCC(=O)O)c4c(nc3c2)CCCC4)c(Br)c1 | 1.0 | -18.5 | 11.1 | 1.6 | -2.3 | 5.9 | -15.8 | i
COc1ccc(NS(=O)(=O)c2cc(-c3nnnn3C)ccc2OC)cc1 | -14.1 | -16.7 | -13.7 | -0.7 | -1.2 | -11.4 | -6.6 | i
CC(=O)c1sc(N/N=C/c2cccc([N+](=O)[O-])c2)nc1C | -72.8 | -23.3 | -10.0 | -2.0 | -1.9 | 2.7 | 8.0 | i
CCN(Cc1ccccc1)S(=O)(=O)c1ccc(S(=O)(=O)N(Cc2ccccn2)Cc2ccco2)cc1 | 8.7 | -19.0 | 6.6 | 3.5 | 1.5 | -2.3 | -10.0 | x
Cc1[nH][nH]c(=O)c1C(c1ccc(-c2ccc(Cl)cc2)o1)c1c(C)[nH][nH]c1=O | x | -25.8 | 2.5 | 2.1 | 3.3 | 5.6 | 5.2 | i
NC(=O)C1(c2ccccc2)CCCN1C(=O)c1ccccc1Br (stereo not drawn) | -2.8 | x | 11.4 | 0.7 | 3.7 | -6.4 | 2.0 | i
CCOC(=O)Cn1nc(NC(=O)c2cc(OC)cc(OC)c2)cc1C | -4.8 | -7.8 | -10.4 | 2.7 | 6.3 | -17.2 | 5.8 | i
CC(C)n1[nH]c2ccccc2c1=O | -6.0 | -15.0 | x | 2.6 | 5.2 | x | x | x
Cn1ccnc1Sc1ccccc1[N+](=O)[O-] | 5.4 | x | -2.2 | -2.6 | 3.8 | -9.2 | -4.9 | i
COc1ccc(C(=O)NCC(=O)N2CCN(c3ccc(F)cc3)CC2)cc1 | 4.3 | -7.5 | 2.8 | 0.7 | -0.2 | -2.7 | -1.0 | i
COc1ccc(-n2c(C)cc(C(=O)CN3C(=O)c4ccccc4C3=O)c2C)cc1 | 14.5 | x | -2.0 | -5.7 | -6.4 | 19.6 | -2.4 | i
O=C(c1ccncc1)N(Cc1ccco1)Cc1cc2ccccc2[nH]c1=O | 4.6 | -18.6 | 0.8 | 5.1 | -2.2 | -4.7 | 3.7 | i
CCN1C(=O)C(O)(CC(=O)c2cc(C)ccc2C)c2ccccc21 (stereo not drawn) | x | 8.2 | -8.6 | 1.6 | -3.0 | -5.0 | -15.6 | i
Nc1cc(C(=O)OCC(=O)c2ccc(CC(=O)N3CCOCC3)s2)ccc1Cl | x | -15.7 | x | -4.6 | -1.0 | -8.2 | x | x
Cc1cccc(C(=O)NCC(=O)NC(C)CCc2ccccc2)c1 (stereo not drawn) | -3.6 | 3.9 | -10.0 | 0.2 | 3.0 | -3.2 | -6.9 | i
COc1cccc(Nc2nc(NCCO)nc(N3CCCC3)n2)c1 | -0.4 | -1.4 | x | 8.2 | 0.3 | -8.7 | x | i
O=C1C(Cl)=C(O)C2(Cl)C(Cl)=C(Cl)C12Cl (stereo not drawn) | 21.4 | -9.6 | x | 2.9 | 3.6 | x | x | x
Cc1csc(NC(=O)Nc2ccccc2[N+](=O)[O-])n1 | -120.6 | -7.7 | -4.5 | 1.5 | 1.0 | 12.1 | 12.4 | i
O=C(C[n+]1cccc(Br)c1)c1ccc(-c2ccccc2)cc1 | 8.6 | -24.7 | 65.6 | -0.9 | -1.0 | 30.7 | 0.8 | i | eIF4H inh retest=-5.5;PABP FP inh retest=16.7
Cc1ccc(S(=O)(=O)N2CCCC2CNC(=O)C(=O)NCc2cccs2)cc1 (stereo not drawn) | 0.8 | -5.8 | x | 4.7 | -3.0 | 3.4 | x | i
Cc1ccccc1NC(=S)NNc1ncc(C(F)(F)F)cc1Cl | -3.6 | -18.9 | -1.0 | 9.6 | 8.0 | x | -6.4 | i
Cc1cc(C)cc(NC(=O)NC2CCCCCCC2)c1 | x | 7.1 | 0.7 | -1.7 | -1.7 | -11.4 | 3.3 | i
O=C(CSc1nc2ccccc2[nH]1)c1ccccc1F | -52.9 | -36.8 | -6.3 | 0.5 | 0.4 | 2.9 | -0.1 | i
Cc1ccc(C(C(=O)NC2CCCCC2)N(C(=O)c2csnn2)c2ccccc2F)o1 (stereo not drawn) | 10.0 | 0.3 | 4.3 | -0.1 | 0.5 | -8.2 | 0.5 | i
CCn1nc(C(=O)OCC(=O)Nc2ncc(Cl)c(C)c2Cl)c2ccccc2c1=O | 13.9 | -0.1 | -14.2 | -2.4 | 5.2 | -14.4 | 37.3 | i
O=[N+]([O-])c1ccccc1S(=O)(=O)N1CCSCC1 | x | -11.8 | x | 2.1 | 3.8 | -21.4 | x | x
CCOc1ncccc1C(=O)OC(C)C(=O)Nc1ccc(Cl)cn1 (stereo not drawn) | -11.1 | -11.4 | x | 2.8 | 3.6 | x | x | x

High-throughput results as filed in PubChem.
